High-throughput results deposited in PubChem by Emory University Molecular Libraries Screening Center.
Measles inh – inhibitors of measles virus growth in infected cells. z-score (test concentration not listed). infected Vero cells, GFP fluorescence, 64 h; stronger effect = lower value. 33,000 tested, 0.1% active;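 active means z-score under -3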;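 further: score is relative to mean and SD of the compound wells of a plate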
Starred values were filed as active, the others as inactive.

SMILES	Measles inh
CCOc1ccc(/C(O)=C2\C(=O)C(=O)N(Cc3cccnc3)C2c2ccc(C)cc2)cc1 (centres undefined)	-0.48
CCOC(=O)c1c(NC(=O)c2ccc(S(=O)(=O)N3CCc4ccccc4C3)cc2)sc2c1CCCCC2	-0.79
Cc1[nH]nc(SCC(=O)N2CCN(Cc3ccccc3)CC2)c1[N+](=O)[O-]	-0.06
CCCCN(CC)S(=O)(=O)c1ccc(C(=O)Nc2nc3ccc4sc(C)nc4c3s2)cc1	-0.14
O=[N+]([O-])c1ccc(S(=O)(=O)Nc2ccc3c(c2)OCCO3)cc1	-0.32
Ic1cccc2c1N1CCN2CC1	0.08
COC(=O)C1=C(C)N(Cc2ccccc2)C(=O)NC1c1cccc([N+](=O)[O-])c1 (centres undefined)	-1.01
CS(=O)(=O)N(Cc1ccccc1Cl)c1ccc(C(=O)Nc2ccc(S(=O)(=O)N3CCOCC3)cc2)cc1	-0.62
CC1=C(C)CC(C(=O)Nc2sc3c(c2C#N)CCC3)C(C(=O)O)C1 (centres undefined)	-0.7
COc1cc(C=Nc2ccc3nc(-c4ccccc4)[nH]c3c2)c(O)c([N+](=O)[O-])c1	0.55
O=C(CCN1C(=O)COc2ccccc21)NC1CCCCCCC1	-0.47
COC(=O)CCC(=O)Nc1ccc(S(N)(=O)=O)cc1	0.18
OCCCc1nc2n(n1)C(c1cccc(Br)c1)C=C(c1cccs1)N2 (centres undefined)	-0.05
Cc1ccc(CNC(=O)c2oc3ccc(S(=O)(=O)N4CCCC(C)C4)cc3c2C)cc1 (centres undefined)	-0.65
C=CCNC(=O)c1cc(S(=O)(=O)N2CCCCC2)ccc1F	-0.89
O=C(C1CCCN(S(=O)(=O)c2cccc3nonc23)C1)N1CCN(Cc2ccccc2)CC1 (centres undefined)	-0.9
CCCC(O)(c1ccc(F)cc1)C(CN1CCOCC1)c1ccccc1 (centres undefined)	0.9
Cc1ccc(S(=O)(=O)NC(=O)C(C)O)cc1 (centres undefined)	-0.07
Cc1cc(C)c(C#N)c(SCC(=O)Nc2ccccc2C#N)n1	0.46
COc1cc(OC)cc(-n2c(=O)c3ccccc3n(CC(=O)Nc3ccccc3OC)c2=O)c1	0.58

Next structures:
SMILES	Measles inh
CCCCCn1c(C(C)NC(=O)Cc2ccccc2)nc2ccccc21 (centres undefined)	-0.46
Cc1ccc2c(c1)C(c1ccc(F)cc1)N(C(=O)c1cccc(Br)c1)CC(=O)N2 (centres undefined)	-0.93
CCN(CC)S(=O)(=O)c1cc(C(=O)Nc2ccccc2OC)ccc1C	-1.19
COc1ccc(NS(=O)(=O)c2ccc(NC(=O)c3ccccc3C(=O)O)cc2)nn1	-0.45
Cc1nc(-c2c(C)oc3cc(O)cc(C)c3c2=O)cs1	-0.59
CN(c1ccc(Br)cc1)S(=O)(=O)c1ccc2c(c1)CCN2C(=O)C1CCC1	1.24
O=C(Nc1cc2c(ccc3ccccc32)oc1=O)c1ccccc1	0.48
CCc1c(C)nn2cn[n+](Cc3ccc(Cl)cc3)c2c1[O-]	0.69
Cc1cccc(N2C(=O)C(Cl)=C(NC3CCCCC3)C2=O)c1C	0.63
Cc1ccccc1C(=O)Nc1ccc(-c2nc3ncccc3o2)cc1	-0.19
Cc1ccc(Cn2c(=S)[nH]c3ccsc3c2=O)cc1	-1.34
O=C(NCCC1=CCCCC1)N1c2ccccc2Sc2ccccc21	-0.41
CCC(C)n1c(=S)[nH]c2ccsc2c1=O (centres undefined)	0.7
CCOC(=O)c1ccc(NCc2ccc([N+](=O)[O-])cc2)cc1	-0.49
COc1cc2[nH]c(=S)n(CCc3c[nH]c4ccccc34)c(=O)c2cc1OC	0.31
CCOC(=O)CCCc1c[nH]c2ccccc12	0.02
O=S(=O)(NC1CCCCC1Sc1ccccn1)c1ccccc1 (centres undefined)	0.48
CCC(C)NC(=O)c1ccc2c(c1)N(Cc1ccccc1)C(=O)CS2 (centres undefined)	0.7
O=C1C(=O)N(CCN2CCOCC2)C(c2ccc(Br)cc2)/C1=C(\O)c1ccc(S(=O)(=O)N2CCOCC2)cc1 (centres undefined)	-0.32
CCCCNC(=O)c1cc(=O)[nH]c2ccc(S(=O)(=O)N3CCCC3)cc12	-1.93

Next entries follow:
SMILES	Measles inh
COCCN1C(=O)C(O)=C(C(C)=O)C1c1ccc(O)c(OC)c1 (centres undefined)	-1.04
O=C(O)CCC(=O)N1N=C(c2cccs2)CC1c1ccccc1F (centres undefined)	1.22
CC(C)CN(CC(C)C)S(=O)(=O)c1ccc(C(=O)Nc2nc3c(s2)CC(C)CC3)cc1 (centres undefined)	-0.44
O=C(Nc1ccc2sc(NC(=O)c3ccc(Cl)cc3)nc2c1)c1ccc(Cl)cc1	0.13
Cc1nnc2c3c(-c4ccc(C(C)C)cc4)csc3ncn12	-1.11
NC(=O)c1ccc[n+](CC(=O)c2cc3ccccc3oc2=O)c1	1.8
c1ccc(C[n+]2ccc(-c3nc4ccccc4s3)cc2)cc1	-0.09
Cc1cc(C)c(S(=O)(=O)NCC2CCC(C(=O)N3CCc4ccccc4C3)CC2)c(C)c1 (centres undefined)	0.56
CC(C)CCNC(=O)c1cc(=O)[nH]c2ccc(S(=O)(=O)N(C)C3CCCCC3)cc12	-0.54
CCOC(=O)C1CCN(C2CC(=O)N(c3ccc(OC(F)(F)Cl)cc3)C2=O)CC1 (centres undefined)	-0.57
Cc1cc([N+](=O)[O-])c(N2CCOCC2)cc1NC(=O)c1cc2ccccc2o1	0.03
Cc1ccc([N+](=O)[O-])c2c1NC(c1cccc([N+](=O)[O-])c1)C1CC=CC21 (centres undefined)	-0.62
Cc1ccc(CCNC(=O)c2nnn(-c3cccc(C)c3)c2N)cc1	-0.91
O=C(C1CCC1)N1CCc2cc(S(=O)(=O)NCc3ccc(F)cc3)ccc21	1.04
O=C(Nc1ccc(O)cc1)c1c(O)c2c([nH]c1=O)CCCC2	-0.91
CC(C)c1ccc(NC(=O)C(Cc2ccccc2)NC(=O)C2CCCCC2)cc1 (centres undefined)	2.27
COc1ccc(NC(=O)c2cc(-c3ccc(Cl)s3)nc3ccccc23)cc1	2.13
COc1ccc(NC(=O)CN2CCCN(S(=O)(=O)c3ccc(F)cc3)CC2)cc1OC	-0.36
COc1ccc(NC(=O)C2CCC(Cn3c(=S)[nH]c4ccccc4c3=O)CC2)cc1OC (centres undefined)	-0.36
O=S(=O)(c1cccc2nsnc12)N1CCN(C(c2ccccc2)c2ccccc2)CC1	-0.64

The listing continues.
Molecule,Measles inh
Cc1nn(-c2ccccc2)c2sc(C(=O)Nc3ccc(C)c4ncccc34)cc12,-0.77
CCN1CN(Cc2ccco2)CNC1=S,-1.1
Cc1ccc(-n2nc3ccc(NC(=O)c4ccc([N+](=O)[O-])cc4Cl)cc3n2)cc1Cl,-0.21
CC1=C(C(=O)OC2CCCC2)C2(O)C(=O)c3ccccc3C2(O)N1 (centres undefined),0.79
COC(=O)C1=CN(C(C)C)C=C(C(=O)OC)C1c1cc(OC)ccc1OC,1.21
CC(=O)C1C(c2ccc(F)cc2)c2c(noc2C)CC1(C)O (centres undefined),0.74
CC1N=C2c3ccccc3N=C(SCc3cccc(Cl)c3)N2C1=O (centres undefined),-0.25
Nc1ccc(C(=O)CC2(O)C(=O)Nc3ccc(Cl)cc32)cc1 (centres undefined),-0.26
Cc1ccc(Oc2ccc3c(c2)C(=O)N(c2ccccc2C(=O)O)C3=O)cc1,-1.33
Cc1cccc(N(CC(=O)NCC(C)C)S(=O)(=O)c2ccccc2)c1C,-0.13
CN(C)c1ccc(C=Nc2ccccc2C(=O)O)cc1,-0.63
COc1cc(NC(=O)NS(=O)(=O)c2ccc(C)cc2)cc(OC)c1,0.51
COc1ccccc1CNC(=O)C(=O)Nc1ccc(C(C)(C)C)cc1,-1.22
CCN(CC)C(=O)CSc1nc2ccccc2n1S(=O)(=O)c1cc([N+](=O)[O-])ccc1C,-0.01
COc1ccc2oc(=Nc3ccc(C(=O)O)cc3)c(C(=O)Nc3cc(Cl)ccc3OC)cc2c1,0.82

New compounds follow.
Molecule,Measles inh
CCOc1ccc(C2=CC(c3cccc(OC)c3OC)n3c(nc4ccccc43)N2)cc1Cl (centres undefined),1.23
Cc1c(NC(=O)COc2ccc(C3CCCCC3)cc2)cccc1-c1nc2ncccc2o1,-0.5
O=C(c1ccc(F)cc1)N1CCN(C(=O)c2ccco2)CC1,0.13
COc1cccc(C2C3=C(CCCC3=O)Nc3nc(SCc4ccc([N+](=O)[O-])cc4)[nH]c(=O)c32)c1 (centres undefined),0.64
CCSc1oc(-c2ccc(F)cc2)nc1S(=O)(=O)c1ccc(Br)cc1,0.06
O=C(CN1C(=O)c2ccccc2S1(=O)=O)NC1CC1,1.1
C=CCn1c(-c2[nH]c3ccc(OC)cc3c2CC)n[nH]c1=S,-0.47
O=C1c2cc3ccccc3c(-c3ccccc3)c2C(=O)N1c1ccccn1,1.34
COc1cc(OC)cc(C(=O)Nc2ccc(-c3nc4cc(C)ccc4o3)cc2)c1,-0.29
O=C(CC1Sc2ccccc2NC1=O)NC1CCCCC1 (centres undefined),2.22
CC(C)C(=O)Nc1c2c(nn1-c1ccc(F)cc1)CS(=O)(=O)C2,0.2
COc1ccc(S(=O)(=O)N2c3ccc(Br)cc3C(C)=CC2(C)C)cc1,-0.08
COC(=O)c1ccc(-c2csc(NC(=O)c3ccc(S(=O)(=O)N4CCOCC4)cc3)n2)cc1,0.09
COc1ccc(C(=O)O)cc1N1C(=O)C2C3CCC(C3)C2C1=O (centres undefined),-0.48
Cc1ccc(-c2nc3ncccc3o2)cc1NC(=O)c1cccc(OCC(C)C)c1,2.67

Next part:
Molecule,Measles inh
CCSc1nnc2n(-c3ccccc3OC)c(=O)c3c4c(sc3n12)CCC4,-0.86
Cc1ccc(-n2ncnc2-c2ccccc2Cl)cc1Cl,-0.59
CN(CCOC(=O)C1c2ccccc2Oc2ccccc21)Cc1ccccc1,0.81
COc1cccc(-n2c(=O)c3c(C)c(C(=O)N(C)C)sc3n(Cc3cccc(C)c3)c2=O)c1,0.18
CC(C)Sc1ncnc2c1c(-c1ccccc1)cn2-c1cccc(F)c1,1.52
O=c1c2c(nc3n1CCCS3)-c1ccccc1CC21CCCC1,0.07
Cc1nc2nc(SCC(=O)NCc3ccccc3Cl)nn2c(C)c1Cc1ccccc1Cl,0.11
CN(Cc1ccccc1)C(=O)c1cc2n(n1)C(C(F)(F)F)CC(c1ccc(Cl)cc1)N2 (centres undefined),-0.04
COc1ccc(C2CC(=O)C3=C(C2)NC(C)=C(C(=O)Nc2ccc(C)cc2)C3c2cccc(Br)c2)cc1OC (centres undefined),-0.98
O=C(CSCCO)Nc1nccs1,1.11
CC1CCc2c(sc3ncnc(SCC(=O)c4ccc(Cl)cc4)c23)C1 (centres undefined),-0.65
CCOC(=O)C1=C(C)N=C2SC(CC)C(=O)N2C1c1ccc(C(C)(C)C)cc1 (centres undefined),-0.42
O=S(=O)(NCC12CC3CC(CC(C3)C1)C2)c1cccc(S(=O)(=O)c2ccc(Cl)cc2)c1,0.2
COc1ccc(NC(=O)CCS(=O)(=O)c2cccc3nonc23)c(OC)c1,-0.49
O=C1c2cccc3cccc(c23)C(=O)N1CCC(=O)n1cnc2ccccc21,0.45

(more compounds)
Molecule,Measles inh
Cc1n[nH]c(C)c1S(=O)(=O)N1CCC(C(=O)NC2CCCCC2C)CC1 (centres undefined),0.9
CCOc1cc2c(c([N+](=O)[O-])c1)NC(c1ccccc1F)C1CC=CC21 (centres undefined),-1.13
COc1ccc(C2=NN(C(=O)C34CC5CC(CC(C5)C3)C4)C(c3cccc([N+](=O)[O-])c3)C2)cc1 (centres undefined),-0.07
CCCCNC(=O)c1ccc(Sc2ccc(C)cc2)c(NC(C)=O)c1,0.4
CN1c2ccccc2C(C)(C)C12Cc1cc(NS(=O)(=O)c3ccc(Br)cc3)ccc1O2 (centres undefined),-0.16
COC(=O)c1n[nH]c([N+](=O)[O-])n1,-0.41
COc1ccc(CNc2ncn[nH]2)cc1OC,-1.38
CCOC(=O)C1CCN(C(=O)c2ccc3nc4ccc(Cl)cc4c(=O)n3c2)CC1,-0.28
CCOc1cccc(-c2nc3cc(Cl)ccc3c(=O)o2)c1,-2.13
O=C(O)CC(NS(=O)(=O)c1ccc(Br)cc1)c1cccs1 (centres undefined),0.99
Cc1ccc(NC(=O)c2ccc(SCC(=O)O)c([N+](=O)[O-])c2)cc1,0.26

Among those listed so far, these contain two or more sulfur atoms:
Molecule,Measles inh
CCOC(=O)c1c(NC(=O)c2ccc(S(=O)(=O)N3CCc4ccccc4C3)cc2)sc2c1CCCCC2,-0.79
CCCCN(CC)S(=O)(=O)c1ccc(C(=O)Nc2nc3ccc4sc(C)nc4c3s2)cc1,-0.14
CS(=O)(=O)N(Cc1ccccc1Cl)c1ccc(C(=O)Nc2ccc(S(=O)(=O)N3CCOCC3)cc2)cc1,-0.62
Cc1ccc(Cn2c(=S)[nH]c3ccsc3c2=O)cc1,-1.34
CCC(C)n1c(=S)[nH]c2ccsc2c1=O (centres undefined),0.7
O=S(=O)(NC1CCCCC1Sc1ccccn1)c1ccccc1 (centres undefined),0.48
CC(C)CN(CC(C)C)S(=O)(=O)c1ccc(C(=O)Nc2nc3c(s2)CC(C)CC3)cc1 (centres undefined),-0.44
O=S(=O)(c1cccc2nsnc12)N1CCN(C(c2ccccc2)c2ccccc2)CC1,-0.64
CCN(CC)C(=O)CSc1nc2ccccc2n1S(=O)(=O)c1cc([N+](=O)[O-])ccc1C,-0.01
CCSc1oc(-c2ccc(F)cc2)nc1S(=O)(=O)c1ccc(Br)cc1,0.06
COC(=O)c1ccc(-c2csc(NC(=O)c3ccc(S(=O)(=O)N4CCOCC4)cc3)n2)cc1,0.09
CCSc1nnc2n(-c3ccccc3OC)c(=O)c3c4c(sc3n12)CCC4,-0.86
O=C(CSCCO)Nc1nccs1,1.11
CC1CCc2c(sc3ncnc(SCC(=O)c4ccc(Cl)cc4)c23)C1 (centres undefined),-0.65
O=S(=O)(NCC12CC3CC(CC(C3)C1)C2)c1cccc(S(=O)(=O)c2ccc(Cl)cc2)c1,0.2
O=C(O)CC(NS(=O)(=O)c1ccc(Br)cc1)c1cccs1 (centres undefined),0.99

Not all compounds are listed; count on the stated rates, not on these rows.
